YjeE inh – displaces an ADP probe from E. coli YjeE (TsaE); P0AF67; purified YjeE, fluorescence polarisation of a bound ADP probe; Potency, µM; hit rate 0.05% among 71,000; active = well fitted falling curve; inconclusive = weaker or top-dose-only fall, or a rising curve; inactive = flat or poorly fitted curve;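 also: top concentration of the series not given in the record; excess ADP was the control for the full effect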
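Fluorescence polarization of a BODIPY Texas Red–ADP probe (2 uM) bound to purified YjeE (10 uM) was read after 15 min room-temperature incubation with compounds. Loss of polarization marks inhibitors; ADP serves as titrated control.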
Bst PK mod – modulators of Bacillus stearothermophilus pyruvate kinase. partly purified Bacillus stearothermophilus pyruvate kinase, luminescence ATP production; ribose 5-phosphate activator present at AC10. Potency, µM. hit rate 1.2% among 51,000. AID 361; in the data active means potency below about 11 µM; inconclusive means mostly about 12 µM to 25 µM; inactive means weaker than that;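 the screen sought inhibitors and activators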;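 also: potency is read from the fitted curve at half-maximal effect; scaled between full activation by ribose 5 phosphate and full inhibition by luteolin; about four in five hits inhibit and the cells do not say which; series up to 57 µM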
The depositor's hits bear a star; i = inactive; ? = inconclusive; . = not tested or not shown. This is a subset; the hit share may differ from the screen's.

The first 4 compounds as a preview:
SMILES	YjeE inh	Bst PK mod
CCC(=O)Nc1cc(OC)c(NC(=O)c2ccccc2)cc1OC	i	>57
COc1ccc(N2Cc3ccccc3C2)cc1Cl	i	.
CN1CCN(S(=O)(=O)c2ccc(=O)[nH]c2)CC1	i	>57
O=C(COc1cc(Cl)c(Cl)cc1Cl)Nn1cnnc1	i	i

The list itself, previewed entries included:
SMILES	YjeE inh	Bst PK mod
CCC(=O)Nc1cc(OC)c(NC(=O)c2ccccc2)cc1OC	i	>57
COc1ccc(N2Cc3ccccc3C2)cc1Cl	i	.
CN1CCN(S(=O)(=O)c2ccc(=O)[nH]c2)CC1	i	>57
O=C(COc1cc(Cl)c(Cl)cc1Cl)Nn1cnnc1	i	i
COC(=O)C1=C(C)N=c2s/c(=C/c3ccoc3)c(=O)n2C1c1ccccc1 (stereo not drawn)	i	>57
O=C(Nn1cnc2ccccc2c1=O)C1CCCCC1	i	>57
CCn1cc(C(=O)NCc2ccc3c(c2)OCO3)c(=O)c2cc(F)c(N3CCN(C)CC3)cc21	i	?
CCn1nnc(-c2ccccc2NC(=O)c2cccc(-n3cnnn3)c2)n1	i	>57
CC(C)n1c(SC2C(=O)CC(C)(C)CC2=O)nc2c1c(=O)n(C)c(=O)n2C	i	>57
CCCC1COC(Cn2cncn2)(c2ccc(C)cc2)O1 (stereo not drawn)	i	.
Cn1c(Cn2c(=O)sc3ccccc32)nnc1SCc1ccccc1F	i	.
O=C1OC2CCC1(c1ccccc1)C2 (stereo not drawn)	.	>25.6
c1ccc(-c2nc(N3CCCCCC3)nc(-n3ccnc3)n2)cc1	i	>57
CC(C)(C)NC(=O)CSc1nnc(C2CC2)n1Cc1ccccc1	i	>57
O=c1c2ccccc2nnn1CSc1nnc(-c2cccs2)n1Cc1ccccc1	i	>57
CC(C)CCn1nnnc1C(c1ccccc1)N1CCN(C)CC1 (stereo not drawn)	i	>57
Cn1c(C(=O)NCCCN2CCN(c3ccc(F)cc3)CC2)cc2c(=O)n(C)c3ccccc3c21	i	.
COc1c(S(=O)(=O)N2CCCCC2)ccc2c(S(=O)(=O)N3CCCCC3)cccc12	i	>57
COc1cccc(-n2nnc3c(=O)n(Cc4ccc(C)cc4)cnc32)c1	i	>57
Cn1c(N)c(C#N)c2c(c1=S)CSC(C)(C)C2	.	>25.6
O=C(NCCO)c1nc(NCCO)c2ccccc2n1	i	>57
CC1Cc2ccccc2N1C(=O)C12CCC(C)(C(=O)C1)C2(C)C (stereo not drawn)	i	.
CCCCN(CC)CCCNC(=O)CS(=O)(=O)Cc1nc(-c2cccc(OC)c2)oc1C	i	>57
CS(=O)(=O)N1CCC2(CCCN(C(c3ccccc3)c3ccccc3)C2)CC1	i	.
CN(Cc1ccccc1)c1nc2c(c(=O)[nH]c(=O)n2C)n1CCOc1ccccc1	i	>57
CCOCCCN(CCC#N)S(=O)(=O)c1ccc(S(=O)(=O)N2CCCC2)cc1	i	>57
Cc1ccnc(SCC(=O)O)n1	i	>57
Nc1nc(NC(=O)Cc2ccccc2)nn1-c1ccccc1	.	>25.6
Cc1ccc(C(=O)Nc2ccc(Cl)cn2)cc1	i	9.14*
CCn1ncc(CN2CCN(C(=O)Nc3ccccc3C(=O)OC)CC2)c1C	i	>57
c1ccc2[nH]c(-c3ccnc4ccccc34)nc2c1	i	.
Nc1ccccc1CCCC(=O)O	i	.
CC1CCc2nc(NC(=O)Cc3cccs3)sc2C1 (stereo not drawn)	i	.
COCc1cc(C)[nH]c(=O)c1C#N	i	.
OC1C[N+]2(CCCCC2)C1	i	>57
CC1(C)CC(=O)C=C(NCCCN2CCCC2=O)C1	?	>57
CCOC(=O)N1CCC(NC(=O)C(NS(=O)(=O)c2ccc3c(c2)CCN3C(C)=O)C(C)C)CC1 (stereo not drawn)	i	>57
Cn1c(=O)cc(SCC(=O)NCCCN2CCOCC2)c2ccc(Cl)cc21	i	>57
O=C(O)c1cc2n(n1)C(C(F)(F)F)CC(c1ccco1)N2 (stereo not drawn)	i	>57
CCOc1cccc(NC(=O)C2CC(=O)N(C)C(=Nc3cccc(F)c3)S2)c1 (stereo not drawn)	i	>57
CN(C)c1cccc2c(S(=O)(=O)N3CCOCC3)cccc12	.	>11.4
O=C(CN1C(=O)NC2(CCCC2)C1=O)Nc1nc(-c2ccc(F)cc2)cs1	i	>57
CC(=O)c1cc(Cc2csc(C(C)=O)c2)cs1	i	.
O=C(c1ccccc1)N(Cc1ccccc1)c1ccccn1	i	.
CCN(CC(=O)O)CC(=O)O	i	.

Structural class, the compounds so far containing a furan ring, fused or not (2)
SMILES	YjeE inh	Bst PK mod
COC(=O)C1=C(C)N=c2s/c(=C/c3ccoc3)c(=O)n2C1c1ccccc1 (stereo not drawn)	i	>57
O=C(O)c1cc2n(n1)C(C(F)(F)F)CC(c1ccco1)N2 (stereo not drawn)	i	>57

Continued:
SMILES	YjeE inh	Bst PK mod
CCC(c1nnnn1C1CCCC1)N1CCN(c2ccccc2F)CC1 (stereo not drawn)	i	>57
O=C(NCc1cccnc1)c1c[nH]c2cc3c(cc2c1=O)OCCO3	i	i
CCOc1nc(-c2ccccc2)ccc1-c1noc(COc2ccccc2)n1	i	>57
O=c1/c(=C/c2ccccn2)sc2nc3ccccc3n12	i	.
COc1ccc(C)cc1S(=O)(=O)Nc1cccc(Cl)c1	i	>57
O=C(O)c1c(Cl)c(Cl)c(Cl)c(Cl)c1C(=O)N1CCOCC1	i	i
COC(=O)Nc1ccc2c(c1)N(C(=O)CCN1CCOCC1)c1ccccc1S2	i	>57
O=C(CCCCCN1C(=O)CCC1=O)Nc1ccc(Br)cc1F	i	>57
COc1cc2c(N3CCOCC3)cc(O)c(CC(=O)Nc3ccccc3)c2cc1OC	i	>57
CCOc1ccc(C=NC23CN4CN(CN(C4)C2)C3)cc1	i	>57
COC(=O)CSc1nsc(SCC(=O)OC)n1	i	>57
CC(=O)OCn1nnc2ccccc2c1=O	i	>57
Cc1cccc(OCC(=O)Nc2cc(C)ccc2O)c1	i	>57
CCOC(=O)CCc1c(C)c2ccc(OCc3nn[nH]n3)cc2oc1=O	i	>57
Nc1nc2c(s1)CCc1c-2cnn1-c1ccccc1	i	10.1*
CCOc1ccc2ccccc2c1CNCCN1CCOCC1	i	>57
COc1cccc(Nc2nnc(SCn3nnc4ccccc4c3=O)s2)c1	i	>57
Cn1c(=O)c2c(nc3sccn32)n(C)c1=O	i	>57
S=c1[nH]nc(Cc2ccccc2)n1Cc1ccco1	i	>57
O=C(NCc1ccccn1)NC12CC3CC(CC(C3)C1)C2	i	>57
O=C(Cc1ccc(S(=O)(=O)N2CCCC2)s1)N1CCOCC1	i	>57
Cn1c(SCC(=O)N2CCOCC2)nnc1-c1ccccc1	i	>57
Cc1nc(N2CCN(c3ccccc3)CC2)nc2c1C(=O)CCC2	i	>57
COc1ccc2c3c1OC1C[C@@H](O)C=C[C@@]31CCN(C)C2 (stereo partly drawn)	i	.
O=C(c1ccc(CS(=O)(=O)c2ccccc2)o1)N1CCOCC1	i	.
O=C(CCc1nc(-c2ccccc2)no1)Nc1cc(C(F)(F)F)ccc1Cl	i	>57
COc1ccc(-c2ocnc2C(=O)Nc2ccccc2N2CCCCC2)cc1	i	>57
CS(=O)(=O)N(Cc1ccccc1)c1ccc(C(=O)N2CCOCC2)cc1	i	>57
Cn1c(=NCC(O)COc2ccccc2)sc2ccccc21 (stereo not drawn)	.	>25.6
COc1cc(NS(=O)(=O)N2CCCC2)cc(OC)c1OC	i	>57
CCC(=O)Nc1ccccc1C(=O)N1CCOCC1	i	>57
COc1cccc2cc(C(=O)C3=C(O)C(=O)N(CCCN4CCOCC4)C3c3ccncc3)oc12 (stereo not drawn)	i	>57
CCOc1cccc(C2C(C(=O)c3ccco3)=C(O)C(=O)N2Cc2ccncc2)c1 (stereo not drawn)	i	>57
CCN(CC(=O)NC(=O)NCc1ccco1)Cc1nc2ccccc2c(=O)[nH]1	i	>57
CCN(CC)P(=O)(C(NC(=O)OC)C(F)(F)C(F)(F)C(F)(F)C(F)F)N(CC)CC (stereo not drawn)	i	>57
CCOc1cc(CNc2ccc3[nH]c(=O)[nH]c3c2)ccc1OCC(=O)NC(C)(C)C	i	.
COc1ccc(N2C(=O)NC3CC2(C)Oc2ccccc23)cc1OC (stereo not drawn)	i	>57
CCOC(=O)c1cc2c(=O)n3cccc(C)c3nc2n(C)c1=N	.	>25.6
N#Cc1nc(-c2ccco2)oc1NCCc1ccccc1	i	>57
Cc1ccc(S(=O)(=O)NCCOc2nc(N(C)C)nc(N3CCOCC3)n2)cc1	i	>57
Cc1ccc(SCCNS(=O)(=O)c2ccc3c(c2)OCCO3)cc1	i	i
O=C(CSc1ccc2c(c1)OCCO2)Nc1ccc(Cl)cn1	i	>57
COC(=O)CSc1nc(C)c(Oc2ccccc2)c(=O)[nH]1	.	>25.6
O=c1ccc2cc(O)c(O)cc2o1	i	.
O=C(O)c1cc(Nc2nc(N3CCOCC3)nc(N3CCOCC3)n2)ccc1Cl	i	>57

In a second layout: entries from further up.
Sequence of screens: YjeE inh, Bst PK mod
- CCOc1cc(CNc2ccc3[nH]c(=O)[nH]c3c2)ccc1OCC(=O)NC(C)(C)C
 : i, .
- CCC(=O)Nc1ccccc1C(=O)N1CCOCC1
 : i, >57
- O=C(CSc1ccc2c(c1)OCCO2)Nc1ccc(Cl)cn1
 : i, >57
- O=C(O)c1cc(Nc2nc(N3CCOCC3)nc(N3CCOCC3)n2)ccc1Cl
 : i, >57

Next part
SMILES	YjeE inh	Bst PK mod
COCC(C)NC(=O)c1cccc(Cl)c1 (stereo not drawn)	i	>57
OCc1c[nH]c2ccccc12	i	.
Clc1nc(NCCc2ccccc2)c2ncn(-c3ccccc3)c2n1	i	.
Cc1ccc(S(=O)(=O)N2CCCC2C(=O)OCc2ccco2)cc1 (stereo not drawn)	i	>57
CCCc1[nH]nc2c1C(c1ccc(OC(=O)N3CCOCC3)cc1)C(C#N)=C(N)O2 (stereo not drawn)	i	>57
O=C(c1cccc(F)c1)N1CCN=C1SCc1cccnc1	i	.
Cc1cc(N(CC(=O)O)S(C)(=O)=O)ccc1Br	i	.
O=C(Nc1ccccc1-c1ccccc1)NC1CCN(C(=O)N2CCOCC2)CC1	i	>57
COc1ccc(C(C)=O)c2c(O)cccc12	i	i
Cc1nc2ccccc2c(=O)n1/N=C/c1c(O)ccc2oc3c(c12)CCCC3	i	>57
CCN(CCNC(=O)C1CCN(Cc2nc(-c3ccc(Cl)cc3)oc2C)CC1)c1ccccc1	i	>57
CCCCS(=O)(=O)/C=C\C1C2C=CC(C2)C1S(=O)(=O)CCCC (stereo not drawn)	i	>57
COc1ccc(N(C(C)C(=O)NC2CCCCCC2)S(C)(=O)=O)cc1 (stereo not drawn)	i	>57
O=C(C1CC(c2ccc(F)cc2)=NO1)N1CCCCC1 (stereo not drawn)	i	>57
CC(=O)Nc1ccc(S(=O)(=O)NC(C(=O)O)C2=CCC=CC2)cc1 (stereo not drawn)	i	>57
O=C1c2ccccc2C(=O)C1(O)O	i	.
CCn1c(CNC(=O)c2ccc3c(c2)OCO3)nnc1SCC(=O)Nc1cc(C)ccc1OC	i	>57
Cc1ccc(S(=O)(=O)N(C)CCCC(=O)n2nc(C)cc2C)cc1	i	>11.4
CN(C)CCCCSC(=N)N	i	.
COc1ccc(C(=O)N2CCC3(CCN(Cc4ccccc4OC)CC3)CC2)cc1	i	.
CN(C)c1nc(C(=O)OCCO)nc(N(C)C)n1	i	>57
CNc1nc(C)c(C#N)c(-c2ccccc2)c1C(C)=O	i	>57
COc1ccc(Cn2c(CCC(=O)O)nc3cccnc32)cc1	i	>57
O=c1c(O)c(-c2ccc(O)c(O)c2)oc2cc(O)cc(O)c12	i	.
O=c1[nH]c(C2CCCN(S(=O)(=O)c3ccccc3)C2)nc2c1nnn2Cc1ccccc1 (stereo not drawn)	i	>57
CN(Cc1ccccc1)S(=O)(=O)c1ccc(NS(C)(=O)=O)cc1	i	>57
CCc1ccc(-c2cn(-c3nc(C)cc(C)n3)c(=N)o2)cc1	i	.
CCCCCCCCCC(=O)N[C@@H](CN1CCOCC1)[C@@H](O)c1ccccc1	i	.
O=c1c(-c2ccc(F)c(F)c2)nc2cncnc2n1-c1ccccc1	i	.
COc1ccc(NC(=O)CSc2nc3ccccc3c(=O)n2-c2ccc3c(c2)OCO3)c(OC)c1	i	>57

Ordered by molecular weight (low to high): some entries from above
SMILES	YjeE inh	Bst PK mod
CCCCCCCCCC(=O)N[C@@H](CN1CCOCC1)[C@@H](O)c1ccccc1	i	.
O=c1[nH]c(C2CCCN(S(=O)(=O)c3ccccc3)C2)nc2c1nnn2Cc1ccccc1 (stereo not drawn)	i	>57
CCn1c(CNC(=O)c2ccc3c(c2)OCO3)nnc1SCC(=O)Nc1cc(C)ccc1OC	i	>57

(further entries)
SMILES	YjeE inh	Bst PK mod
Cn1c(=O)c(-c2cc(F)cc(F)c2)nc2cnc(N3CCNCC3)nc21	i	.
CC1(C)NC(=O)N(CCOc2cccc(Oc3ccccc3)c2)C1=O	i	>57
O=C(Nc1ccc(Br)cc1F)c1ccncc1	i	.
CCOC(=O)CCCSc1nc2sc(C)c(C)c2c(=O)[nH]1	i	.
CC(Sc1cccc(C(F)(F)F)c1)C(=O)NC(N)=O (stereo not drawn)	i	>57
CN(CC(=O)N1CCCc2c1c(=O)oc1ccc(O)cc21)Cc1ccccc1	i	>57
N#Cc1cccc(-c2cc(-n3ccnc3)ncn2)c1	i	.
CCN(Cc1ccncc1)S(=O)(=O)c1ccc(C(C)=O)cc1	i	>57
O=C(CSc1nnc(C2CCCCC2)n1-c1ccccc1)NCc1ccco1	i	>57
COc1cc2c(cc1NC(=O)c1ccc3c(c1)OCO3)oc1ccccc12	i	>57
Cc1ccc(N2CC(C(=O)N3CCN(c4ccccc4)CC3)CC2=O)cc1 (stereo not drawn)	i	>57
COCC(=O)N1CCC2(CCCN(c3ccc(-c4ccccc4)cc3)C2)CC1	i	.

Assay outcomes (PubChem)
